# Bioassay records: PubChem, several laboratories
# Beta cell apopt: blocks beta cell apoptosis; INS-1E cytokine-induced death, ATP luminescence, 48 h; percent of positive-control rescue, neutral wells zero; protection from apoptosis, % (no concentration beside the values); hit rate 0.8% among 300,000; AID 435005;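 active = all replicates at 75% or more, or half of them and the mean; inconclusive = half reach 75% but not the mean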;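 also: 0% = cytokine-treated negative control wells and 100% = positive control rescue; higher means more ATP so stronger rescue from cytokine killing; wells of about 40 µL received 100 nL stock; the first replicate is given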
# RanGTP-Imp inh: inhibitors of RanGTP-importin-beta interaction, primary screen, biochemical, FRET, CFP-Ran, YFP-importin-beta, homogeneous; AID 2216; inhibition, % (no concentration beside the values); cell-free CFP-Ran/YFP-importin-beta FRET ratio; hit rate 1.1% among 300,000;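 active = most replicates above 15%; inconclusive = exactly half above 15%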;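 also: 0% = DMSO wells and 100% = Ran loaded with GDP instead of GTP; wells of about 40 µL received 100 nL stock; the first replicate is given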
# UCH37 DUB inh: human UCH37 deubiquitinating enzyme inhibition; Q9Y5K5; purified proteasome/UCH37, Ub-AMC cleavage fluorescence; inhibition, % (test concentration not listed); hit rate 0.33% among 330,000; AID 588478;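 active = mean of two replicates above 20%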;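 also: 0% = compound-free wells with enzyme and 100% = wells lacking proteasome; stock transfer was 100 nL into about 20 µL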
#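 Material: human UCH37 enzyme supplied as purified proteasome complex. Measure: % inhibition of Ub-AMC cleavage fluorescence. Medium: pH 7.4 Tris-HCl (50 mM) with ovalbumin, ATP-MgCl2, DTT. Times: 30 min preincubation with enzyme, 25 min cleavage at room temperature. Detection: AMC fluorescence intensity at 355/460 nm.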
# Bfl-1 A1 inh: inhibitors of the anti-apoptotic protein A1, read as caspase activation | MEF A1-2A-BIM cells, Caspase-Glo 3/7 luminescence, 3 h; percent of clofoctol response, vehicle zero | caspase activation, % (concentration not given with the values) | hit rate 0.066% among 330,000 | AID 2462;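 active = over half of replicate activation scores above 10%, or exactly half above 10 with the replicate mean above 10; inconclusive = replicate mean below 10 yet half the replicates above 10; inactive = over half of replicates below 10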;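 also: wells of about 30 µL received 50 nL stock; many hits fall short of the cut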
# T cruzi inh: T. cruzi replication inhibition | inhibition, % (no concentration beside the values) | T. cruzi beta-gal in NIH3T3, luminescence, 90 h | AID 1885 | hit rate 1.4% among 300,000;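 active = mean inhibition across valid replicates above about 55%, limit read from the data; inconclusive = mean below that limit but half or more replicates reach it; inactive = mean below it, under half of replicates reach it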;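 also: signal also drops with host cell toxicity which is not excluded here; 0% = plate median of DMSO wells and 100% = zero luminescence signal; higher percent means less beta-gal luminescence so fewer parasites; stock transfer was 50 nL into about 50 µL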
# LANA-H2B inh: blocks KSHV LANA binding to histone H2A/H2B | Q9QR71 | cell-free LANA-H2A/H2B peptide, fluorescence polarization | inhibition, % (concentration not given with the values) | hit rate 0.6% among 320,000; in the data active = inhibition mostly above about 10%, no sharp cut-off; inactive = mostly below about 6.7%;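 also: stock transfer was 7.5 nL into about 10 µL; 0% = median of vehicle wells and 100% = median of positive control wells; one replicate is shown; the record names a cut of 25% in any replicate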
# Target sequence (Q9QR71 whole entry, looked up): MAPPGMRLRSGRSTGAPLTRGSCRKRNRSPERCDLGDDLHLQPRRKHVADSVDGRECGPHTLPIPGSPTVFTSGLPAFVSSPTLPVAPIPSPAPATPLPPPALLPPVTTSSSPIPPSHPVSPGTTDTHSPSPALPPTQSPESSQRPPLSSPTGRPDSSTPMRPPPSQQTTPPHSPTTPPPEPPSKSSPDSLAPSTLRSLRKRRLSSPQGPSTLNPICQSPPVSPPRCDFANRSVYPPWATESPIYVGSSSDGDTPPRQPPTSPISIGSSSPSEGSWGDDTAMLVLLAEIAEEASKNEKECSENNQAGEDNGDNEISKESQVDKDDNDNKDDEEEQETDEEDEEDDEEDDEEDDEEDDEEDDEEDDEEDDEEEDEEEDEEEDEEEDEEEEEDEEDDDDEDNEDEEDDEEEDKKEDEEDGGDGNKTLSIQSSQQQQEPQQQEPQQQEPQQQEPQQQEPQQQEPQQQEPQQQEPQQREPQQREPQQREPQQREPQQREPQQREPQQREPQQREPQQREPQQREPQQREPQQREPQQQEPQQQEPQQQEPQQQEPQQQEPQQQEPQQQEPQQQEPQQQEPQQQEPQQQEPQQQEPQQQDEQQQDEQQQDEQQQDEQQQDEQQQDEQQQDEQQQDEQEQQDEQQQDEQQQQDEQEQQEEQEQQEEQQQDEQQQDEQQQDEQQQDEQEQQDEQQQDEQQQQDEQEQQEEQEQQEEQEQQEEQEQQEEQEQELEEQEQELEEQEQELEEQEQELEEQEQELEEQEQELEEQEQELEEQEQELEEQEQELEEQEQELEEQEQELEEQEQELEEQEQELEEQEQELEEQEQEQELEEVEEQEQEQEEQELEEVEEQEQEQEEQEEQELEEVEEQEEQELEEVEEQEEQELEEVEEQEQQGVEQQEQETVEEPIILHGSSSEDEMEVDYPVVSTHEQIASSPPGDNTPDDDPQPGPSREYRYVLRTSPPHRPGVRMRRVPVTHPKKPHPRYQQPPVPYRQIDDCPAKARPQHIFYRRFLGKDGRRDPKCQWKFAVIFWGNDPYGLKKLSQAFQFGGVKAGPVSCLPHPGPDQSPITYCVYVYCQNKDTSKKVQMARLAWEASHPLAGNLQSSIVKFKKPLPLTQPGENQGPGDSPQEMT
# Calb FLC: C. albicans growth modulation with fluconazole; C. albicans CaCi-2 (fluconazole-resistant clinical isolate) + fluconazole, Alamar Blue growth, 48 h; growth inhibition, % (no concentration beside the values); hit rate 0.57% among 300,000;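 active = most replicates above 75%; inconclusive = exactly half above 75%; inactive = most below 75%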;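 also: all wells also contain fluconazole at 8 µg/ml as a sub-toxic cotreatment; 0% = median of DMSO wells and 100% = median of geldanamycin control wells; wells of about 8 µL received 7.5 nL stock; the first replicate is given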
# B2AR ag: human beta-2 adrenergic receptor agonism by FAP. response, % (concentration not given with the values). hit rate 0.43% among 340,000. Am2.2-beta2AR cells, FAP receptor internalization, flow cytometry; reference of the scale not given here. AID 504454. P07550;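 active = response above a set limit, near 3 SD of response in nonfluorescent compounds, cut at about 42% in these data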;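 also: stock transfer was 100 nL into about 11 µL; a reference agonist was the positive control; negative values mostly stem from fluorescent compounds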
# The depositor's hits bear a star; ? = inconclusive; nt = no result given.
SMILES,Beta cell apopt,RanGTP-Imp inh,UCH37 DUB inh,Bfl-1 A1 inh,T cruzi inh,LANA-H2B inh,Calb FLC,B2AR ag
COc1ccc(CCn2c(C)nc3ccccc3c2=O)cc1OC,5,23*,0.2,-0.1,-18,-4.9,0,0
Cc1[nH]n(-c2ccccc2)c(=O)c1C(C[N+](=O)[O-])c1ccccc1Cl (configuration not stated),-4,-2.5,30*,0.1,-16,-0.4,-3,6
CCn1cnnc1SCC(=O)Nc1ccccc1C(=O)NC1CC1,-6,nt,3.1,1.0,nt,1.1,nt,0
Cc1ccsc1CN(C)C(=O)C(NC(=O)c1cccc(S(=O)(=O)N2CCOCC2)c1)C(C)C (configuration not stated),1,nt,0.4,0.7,nt,-1.3,nt,-2
Cc1ccc(O)c(CNc2ccc(S(=O)(=O)Nc3nccs3)cc2)c1,-5,-0.9,6.4,1.0,-10,-5.8,1,4
O=S(=O)(Nc1cccc2ncccc12)c1cccs1,13,3.2,0.0,-0.5,47,-4.9,95*,44*
COc1ccc(C(=O)NC2CC2)cc1OC1CCN(Cc2cc(C)c(C)cc2C)CC1,0,2.1,2.3,-0.6,30,2.8,1,-14
COCCn1c(SCc2ccccc2)nc2c1c(=O)[nH]c(=O)n2C,-5,7.4,5.3,1.1,-3,-6.5,-7,0
OCc1c[nH]c(=S)n1CCOc1cccc(C(F)(F)F)c1,2,0.6,2.0,0.9,3,1.3,5,0
O=C(Nc1ccc(N2CCCC2)c(Cl)c1)c1ccc(Br)o1,23,-2.1,-1.6,-3.3,55*,4.4,-9,4
O=C(CSc1ccccc1)N1CCN(S(=O)(=O)c2ccccc2F)CC1,-11,-0.4,1.1,-0.1,-8,0.7,30,0
COc1ccccc1Cn1c(=S)[nH]c2cc(C(=O)N3CCCC3)ccc2c1=O,1,1.7,2.1,-0.8,-13,1.0,3,3
CCOC(=O)c1ccc(NC(=O)CN2C(=O)C(=O)N(CC(C)C)C2=O)cc1,-5,-2.5,-1.0,-0.9,-11,-0.5,-9,-2
COc1cccc(/C=N/NC(=O)Cn2nc(C)c([N+](=O)[O-])c2C)c1O,49,2.3,nt,1.7,-8,5.9,-14,-2
CSC1=C(C#N)C(c2ccc(C(C)C)cc2)CC(=O)N1 (configuration not stated),nt,-3.0,4.4,-0.6,-7,-1.2,-1,2
CC1CCCC(NC(=O)Cc2ccc(Br)cc2)C1C (configuration not stated),nt,6.7,4.2,-0.2,-6,2.4,-16,-6
CCc1ccc(C(=O)COC(=O)CNC(=O)c2cccs2)cc1,-11,-2.7,-0.1,-1.0,-7,-3.9,-4,-2
Cc1ccc(C(=O)NCCc2nnc3c(C(F)(F)F)cc(Cl)cn23)o1,0,2.4,4.8,-0.9,-7,-1.4,17,-4
CN(C)CCCC(=O)c1ccc2c(c1)OCO2,3,-0.4,-1.2,0.4,-7,0.9,-3,-4
COc1ccc(CCNC(=O)CSc2ccc(Br)cc2)cc1OC,1,-2.2,3.0,-0.2,10,-5.2,9,0
Cn1c(CN2CCCC2)nc2cc(NS(=O)(=O)c3ccccc3)ccc21,-2,0.7,-1.8,-0.3,1,0.3,-9,-5
CC1=C(C)CC(C(=O)NCCCN2CCCC2=O)C(C(=O)O)C1 (configuration not stated),-3,-0.9,2.2,0.4,2,6.1,-5,-4
O=C(COc1ccc([N+](=O)[O-])cc1)Nc1ccc(S(=O)(=O)N2CCOCC2)cc1,0,-3.3,2.3,0.2,-12,-1.2,-1,-22
O=C(O)CCc1nn2c3ccccc3n(CCO)c2nc1=O,-5,nt,-79,-0.5,-17,6.8,25,1
CCN1CCN(C(=S)NCc2ccc(C)cc2)CC1,-7,-0.3,0.7,-0.6,11,-2.1,-10,-6
Cc1cccc2c1Sc1ccccc1CC2=O,-8,4.3,4.5,-0.4,-8,-2.6,-19,8
O=C(COC(=O)c1nc(Cl)c(Cl)c(Cl)c1Cl)c1ccc[nH]1,nt,-12,5.5,0.2,-24,2.1,18,6
O=C(NCCc1ccco1)C(=O)NCC1OCCCN1S(=O)(=O)c1ccccc1 (configuration not stated),5,-4.0,-1.4,0.7,-7,0.9,1,1
C=C(C)CSc1nc2ncccc2[nH]1,-3,-1.5,0.9,0.5,-4,0.2,-12,5
COc1ccc(C2Nc3ccccc3C(=O)N2c2ccccc2)cc1CN1CCOCC1 (configuration not stated),7,nt,-346,-0.6,2,5.5,-7,-10
CCOc1ccccc1NC(=O)C(CC)Sc1nc2ccncc2[nH]1 (configuration not stated),0,2.4,1.3,0.3,12,-4.5,-20,3
O=C(Nc1cnc2ccccc2c1)c1cccnc1,nt,5.2,1.9,-0.8,-9,-1.1,-4,-4
C=CCn1c(SCC(=O)Nc2ncc(Cc3cc(C(F)(F)F)ccc3Cl)s2)nnc1-c1ccncc1,0,-3.8,3.1,1.4,2,2.6,-2,10
Cc1cc(C)nc(Nc2n[nH]c(COc3ccccc3)n2)n1,7,-0.4,0.2,-0.7,2,-47,-3,0
Cc1ccc(C)c(N2CCN(C(=O)c3ccc(Cn4c(=O)[nH]c5ccccc5c4=O)cc3)CC2)c1,8,-4.0,3.5,0.3,65*,0.6,38,0
O=C(NCCN1CCOCC1)c1cccc(Br)c1,nt,20,4.7,-0.1,6,1.6,3,-2
CC(C)(C)c1ccc(C2=NC(=O)C(CC(=O)O)S2)cc1 (configuration not stated),-4,?,-7.7,-0.2,-7,-7.3,-6,13
Cc1cc(C)c2c(n1)nn1c(C)c(CCC(=O)NCc3ccco3)c(C)nc21,7,-0.6,-276,0.4,-8,4.9,-2,-3
CCOc1cccc(N(C(=O)CNC(=O)c2ccco2)C(C(=O)NCC2CCCO2)c2ccccc2)c1 (configuration not stated),-2,0.9,-0.3,-0.2,-9,-3.9,-2,0
C=CCOc1ccccc1/C=c1\sc2nc(-c3oc4ccccc4c3C)nn2c1=O,-5,0.5,nt,0.7,-6,-2.4,0,nt
COC(=O)C(O)(CC(=O)Nc1ccc(C)c(F)c1)C(F)(F)F (configuration not stated),1,0.5,5.2,-0.4,-18,9.0,15,5
CCCCNC(=O)C1CCCNC1=O (configuration not stated),-3,-1.3,2.2,1.6,-4,-2.5,-6,19
N#Cc1ccc(/C=C/C(=O)c2ccc3c(c2)OCO3)cc1,1,-1.6,3.5,-1.2,-40,0.7,17,6
CCCCOC(=O)c1ccc(NC(=O)C(=O)NCCN(C)C)cc1,-4,3.5,-3.6,0.2,5,1.2,-5,3
CC(Cc1cccs1)NC(=O)CCCn1nnnc1CN1CCOCC1 (configuration not stated),nt,1.0,-2.6,-0.2,-3,-7.1,-8,-13
CC(=O)Nc1ccc(/C=N/Nc2nc3ccccc3[nH]2)cc1,12,-2.7,nt,-1.8,-11,-2.1,?,-23
CCCCCC/C(C)=C1/SC(=S)NC1=O,nt,-4.2,6.3,0.3,-11,-2.1,?,6
O=C(NC1CCCCC1)C(=S)N1CCCC1,-2,1.6,0.2,0.6,3,7.8,-18,2
Clc1ccccc1OCCn1nnc2ccccc21,nt,-0.9,3.3,-1.2,-9,2.0,-8,-8
CCOc1ccc(-n2c(SCC(=O)c3c(N)n(C)c(=O)n(C)c3=O)nnc2-c2cccnc2)cc1,-1,2.4,3.2,0.2,-10,4.4,?,-3
Cc1ccc(C)c(N2C(=O)CC(N3CCN(Cc4ccc5c(c4)OCO5)CC3)C2=O)c1 (configuration not stated),-2,3.3,3.9,0.0,17,3.7,?,13
O=[N+]([O-])c1ccc(Sc2ncc3ccccn23)nc1,-1,-2.5,7.2,-0.7,-10,-1.7,-10,-3
CC(C(=O)N/N=C/c1ccc(N(C)C)c(Br)c1)N(c1ccccc1)S(C)(=O)=O (configuration not stated),-4,0.7,nt,-1.6,16,-2.1,-18,-3
CN(C)c1c(-c2ccccc2)cc(-c2ccccc2)[nH]c1=O,nt,-0.1,nt,nt,3,nt,-9,-3
CC(C)(C)N1CSC(=S)N(Cc2ccccc2)C1,0,2.4,4.9,0.8,-12,2.5,-15,0
COc1ccccc1-c1nn(-c2ccccc2)cc1C(=O)NCC(c1ccco1)N1CCCC1 (configuration not stated),-5,nt,1.4,1.1,nt,-0.3,nt,-6
Cc1ccc(S(=O)(=O)N/N=C2/CC(c3ccccc3)Oc3ccccc32)cc1 (configuration not stated),4,0.3,nt,-0.6,12,-3.4,-1,9
Cc1cc(C(=O)Nc2cccc3ccccc23)co1,1,1.6,3.2,0.9,-12,-1.9,2,1
O=C(CCCN1C(=O)c2ccccc2C1=O)Nc1nc2ccccc2[nH]1,-3,0.7,2.0,-0.9,10,0.6,10,-14
Nc1cccc2cnccc12,16,nt,3.2,-0.5,nt,-0.2,nt,2

# Going on with the list.
SMILES,Beta cell apopt,RanGTP-Imp inh,UCH37 DUB inh,Bfl-1 A1 inh,T cruzi inh,LANA-H2B inh,Calb FLC,B2AR ag
O=c1cc(O)c(-c2ccccc2Cl)c(Cl)[nH]1,0,-2.3,0.0,0.3,-8,1.3,0,3
O=C(NCCc1ccc(C(F)(F)F)cc1)C1COc2ccccc2O1 (configuration not stated),-2,3.4,5.0,0.6,4,6.2,-3,-3
O=C(NCCCO)C(=O)NCc1ccccn1,-3,?,4.1,0.5,-3,-3.6,-6,10
N=C(N)SCc1nc2ccccc2c(=O)n1-c1ccccc1Cl,18,26*,-18,0.1,-3,-5.2,4,2
CN(C)c1ccc(CNC23CN4CN(CN(C4)C2)C3)cc1,-6,-3.2,1.4,0.8,-15,4.5,-5,-7
Clc1ccc(C2=CSC3=Nc4cccc5cccc(c45)N23)cc1,54,-2.1,2.5,-0.5,45,0.8,-3,-4
O=C(/C=C/c1ccc(S(=O)(=O)N2CCOCC2)cc1)Nc1cc(F)ccc1F,0,nt,1.5,-2.4,nt,1.9,nt,2
COc1ccc(-c2nnnn2C(C)C)cc1S(=O)(=O)Nc1ccccc1,2,1.9,-0.8,-0.1,9,4.8,1,4
Cc1ccc(N2CC(C(=O)NNC(=O)c3ccc(F)cc3)CC2=O)cc1 (configuration not stated),-4,nt,1.1,-0.3,nt,-2.8,nt,4
Cc1cc2nc3n(c2cc1C)CC1CC(C(=O)NCc2cccc(C(F)(F)F)c2)N(C)C31 (configuration not stated),-15,0.8,0.7,-0.1,1,0.0,-14,11
O=C(Nc1cccc(S(=O)(=O)Nc2ccc(Cl)cc2)c1)c1ccc2c(c1)OCCO2,27,-2.1,1.2,-0.3,-1,1.5,19,9
COC(=O)c1ccccc1NC(=S)NC(=O)COc1ccccc1,-4,3.5,1.2,0.0,-14,-4.0,-2,0
Cc1cc(Cl)ccc1NC(=S)N1CCC(C(N)=O)(N2CCCCC2)CC1,-5,1.0,-0.4,0.0,-2,-3.1,1,0
COc1ccc(OC)c(N(CC(=O)NCCSc2ccccc2)S(C)(=O)=O)c1,0,5.5,2.2,0.7,-5,1.3,-4,-8
Cc1cc(=O)c2n(Cc3ccc(Cl)cc3)nc[n+]2[nH]1,nt,2.0,6.1,0.4,-19,5.7,-9,-5

# This is a random part of the collection (roughly 4.3% active in at least one column).
